Screening data: PubChem BioAssay, Broad Institute
Calb FLC = affects C. albicans growth with fluconazole; C. albicans CaCi-2 (fluconazole-resistant clinical isolate) + fluconazole, Alamar Blue growth, 48 h; growth inhibition, % (test concentration not listed); 300,000 compounds, 0.57% hits; AID 1979;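 active means most replicates above 75%; inconclusive means exactly half above 75%; inactive means most below 75%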;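 further: all wells also contain fluconazole at 8 µg/ml as a sub-toxic cotreatment; 0% = median of DMSO wells and 100% = median of geldanamycin control wells; wells of about 8 µL received 7.5 nL stock; the first replicate is given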
Ecoli rRNA inh = inhibitors of bacterial rRNA selective over humanized ribosomes; 350,000 compounds, 1.6% hits; E. coli WT GFP vs humanized-ribosome RFP mutants, fluorescence, 24 h; hits give low values; DMSO median 0, no signal -100; GFP signal change (wild-type ribosome), % (no concentration beside the values);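 active means significant combined selectivity score with lowered wild-type GFP, culture density cut under 30%, mutant RFP and density less affected; inactive means any of these conditions unmet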; further: one replicate is shown; some compounds called inactive have numbers as strong as hits
Beta apoptosis = blocks beta cell apoptosis; AID 435005; INS-1E cytokine-induced death, ATP luminescence, 48 h; percent of positive-control rescue, neutral wells zero; 300,000 compounds, 0.8% hits; protection from apoptosis, % (test concentration not listed);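 active means all replicates at 75% or more, or half of them and the mean; inconclusive means half reach 75% but not the mean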;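 further: 0% = cytokine-treated negative control wells and 100% = positive control rescue; higher means more ATP so stronger rescue from cytokine killing; wells of about 40 µL received 100 nL stock; the first replicate is given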
FGF22 binding = FGF22 (human) thermal shift binding; Q9HCT0; calls only at 9.99 µM; recombinant FGF22 thermal shift, SYPRO orange fluorescence; percent of sucrose octasulfate shift, DMSO zero; 340,000 compounds, 1.5% hits;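 active means melting point raised past a set limit in the mean and every replicate; inconclusive means no clear call; three in four hits are not shown here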
Target sequence (Q9HCT0 whole entry, looked up): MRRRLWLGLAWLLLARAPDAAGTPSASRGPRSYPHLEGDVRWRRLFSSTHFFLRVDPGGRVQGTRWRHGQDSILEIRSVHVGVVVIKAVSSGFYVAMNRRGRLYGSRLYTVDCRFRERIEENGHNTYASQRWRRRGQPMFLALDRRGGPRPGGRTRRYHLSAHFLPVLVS
T cruzi repl = T. cruzi replication inhibition; T. cruzi beta-gal in NIH3T3, luminescence, 90 h; inhibition, % (test concentration not listed); 300,000 compounds, 1.4% hits; AID 1885;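 active means mean inhibition across valid replicates above about 55%, limit read from the data; inconclusive means mean below that limit but half or more replicates reach it; inactive means mean below it, under half of replicates reach it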;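 further: signal also drops with host cell toxicity which is not excluded here; 0% = plate median of DMSO wells and 100% = zero luminescence signal; higher percent means less beta-gal luminescence so fewer parasites; stock transfer was 50 nL into about 50 µL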
AF4-AF9 inh = inhibitors of human MLL-AF4/AF9 interaction; P42568; AlphaScreen, biotin-AF4 peptide binding to FLAG-AF9; inhibition, % at 10 µM; 350,000 compounds, 0.47% hits; AID 651704;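 active means every replicate reaching a set inhibition limit, whatever the replicate mean, cut at about 25% in these data; inconclusive means mean inhibition reaches that limit but some replicates miss it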;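 further: 0% = plate neutral control median and 100% = total signal loss; the record names both 10 and 1 µM as test concentration; the first replicate is given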
Target sequence (P42568 whole entry, looked up): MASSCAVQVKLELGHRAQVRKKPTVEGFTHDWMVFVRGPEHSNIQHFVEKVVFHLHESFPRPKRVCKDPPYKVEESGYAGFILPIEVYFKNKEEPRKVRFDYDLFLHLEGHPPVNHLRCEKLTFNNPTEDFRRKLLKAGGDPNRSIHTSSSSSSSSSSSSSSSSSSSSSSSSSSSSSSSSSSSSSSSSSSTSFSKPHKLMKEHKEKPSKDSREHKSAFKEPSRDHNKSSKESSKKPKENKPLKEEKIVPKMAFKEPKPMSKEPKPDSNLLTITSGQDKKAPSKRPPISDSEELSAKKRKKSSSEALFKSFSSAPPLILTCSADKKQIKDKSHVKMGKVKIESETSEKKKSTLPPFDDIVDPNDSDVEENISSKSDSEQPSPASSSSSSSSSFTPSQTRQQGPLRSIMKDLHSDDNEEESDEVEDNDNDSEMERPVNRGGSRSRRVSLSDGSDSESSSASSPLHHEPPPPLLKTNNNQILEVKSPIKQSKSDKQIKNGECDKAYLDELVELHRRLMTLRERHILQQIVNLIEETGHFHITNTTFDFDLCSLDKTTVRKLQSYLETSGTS
RanGTP-Impb inh = disruptors of Ran-importin-beta complex formation – biochemical, FRET, CFP-Ran, YFP-importin-beta, homogeneous, primary screen; 300,000 compounds, 1.1% hits; inhibition, % (no concentration beside the values); AID 2216; cell-free CFP-Ran/YFP-importin-beta FRET ratio;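 active means most replicates above 15%; inconclusive means exactly half above 15%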;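 further: 0% = DMSO wells and 100% = Ran loaded with GDP instead of GTP; wells of about 40 µL received 100 nL stock; the first replicate is given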
ALR H2O2 inh = inhibitors of human sulfhydryl oxidase ALR | purified ALR, DTT oxidation, H2O2 HRP-luminol luminescence | inhibition, % (no concentration beside the values) | 290,000 compounds, 3.8% hits | AID 485317;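 active means mean and each replicate at 75% or more; inconclusive means only one of the two met; inactive means neither met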;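 further: stock transfer was 7.5 nL into about 7.5 µL; 0% = neutral wells and 100% = wells with inactivated enzyme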
Target sequence (P55789 whole entry, looked up): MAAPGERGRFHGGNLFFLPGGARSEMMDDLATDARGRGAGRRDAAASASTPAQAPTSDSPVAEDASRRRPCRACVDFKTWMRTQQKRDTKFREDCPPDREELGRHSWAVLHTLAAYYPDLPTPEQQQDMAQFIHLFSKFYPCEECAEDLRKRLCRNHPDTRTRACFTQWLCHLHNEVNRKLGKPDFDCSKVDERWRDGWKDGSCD
Ecoli rRNA inh OD600 = also measured in Ecoli rRNA inh; calls as there; OD600 change, %; measured here: OD600 growth;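 optical density of the mix in the first replicate; 0 = DMSO median and -100 = no signal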
Ecoli rRNA inh RFP = also measured in Ecoli rRNA inh; calls as there; RFP signal change, %; measured here: RFP humanized mutant strains;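 first replicate; 0 = DMSO median and -100 = no signal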
The depositor's hits bear a star; i = inactive; ? = inconclusive; . = no result given; & = joins results of further samples.

SMILES	Calb FLC	Ecoli rRNA inh	Ecoli rRNA inh OD600	Ecoli rRNA inh RFP	Beta apoptosis	FGF22 binding	T cruzi repl	AF4-AF9 inh	RanGTP-Impb inh	ALR H2O2 inh
CCN1CCN(Cc2nc3ccc([N+](=O)[O-])cc3c(=O)n2-c2ccccc2F)CC1	16	11	11	-1.5	-8	i	1	1.2	8.6	-45
Cc1ccccc1-c1nc(CS(=O)CC(=O)N2CCC3(CC2)OCCO3)c(C)o1 (configuration not stated)	5	.	.	.	2	.	-9	.	-4.6	100*
c1ccc2c(CN3CCCCC3)c[nH]c2c1	6	4	8	-0.5	-9	i	-5	2.9	1.5	.
COC1=CCC2([N+](=O)[O-])CN(C)CC1([N+](=O)[O-])C2 (configuration not stated)	6	15	9	-2.7	4	i	-8	0.6	-1.4	-5
CCN1CCC2(CC1)NC(=O)c1ccccc1O2	-5	2	10	1.2	-9	i	11	-2.4	0.1	0
CN1CCN(c2nc(N(C)C)oc(=O)c2C#N)CC1	12	.	.	.	-4	.	-6	.	-3.4	-9
ON1C2CCCCC2N(O)C1c1ccccc1F (configuration not stated)	-4	.	.	.	0	.	-17	.	1.4	11
Cc1cc(OCC(=O)NCc2ccncc2)c2c3c(c(=O)oc2c1)CCC3	-8	-1	5	-1.0	-2	i	0	0.8	-1.3	-4
COCCCn1c(N)c(C(=O)Nc2ccccc2)c2nc3ccccc3nc21	-3	5	1	-0.5	-1	i	35	-1.8	19*	-6
Cc1cc(C(=O)N2CCC3(CC2)OCCO3)cs1	0	.	.	.	-2	.	-1	.	-2.6	1
CC1=C(C(=O)O)N2C(=O)C(NC(=O)Cc3ccccc3)C2SC1 (configuration not stated)	1	11	2	-3.8	-5	i	-5	-26	9.5	-9
CCN(CC)CCN=C(C)c1c(O)n(-c2ccccc2OC)c(=O)[nH]c1=O	-8	.	.	.	0	.	5	.	4.6	-9
CC(=NCCN1CCCCC1)c1c(O)n(-c2ccc(Cl)cc2)c(=O)[nH]c1=O	-9	.	.	.	-3	.	-8	.	4.1	2
O=C(C(=O)N1CCOCC1)c1cn(Cc2c(F)cccc2Cl)c2ccccc12	2	15	16	-6.4	3	i	3	-2.2	-1.4	-1
Cc1cccn2c(=O)c3c(nc12)N1CCC(Cc2ccccc2)CC1C1(C3)C(=O)N(C)C(=O)N(C)C1=O (configuration not stated)	32	.	.	.	9	.	35	.	-3.4	-10
Clc1ccc(C[n+]2c(-c3ccccc3)cc(-c3ccccc3)cc2-c2ccccc2)cc1	1	-55	-78	-25	122*	i	56*	19	?	-11
COc1cccc(-n2c(CN3CCOCC3)nc3ccc([N+](=O)[O-])cc3c2=O)c1	2	-13	2	2.8	16	i	15	-2.4	-3.5	2
CCN1CCC(N(C)C2CCCCC2)CC1	-4	7	6	-1.7	-1	i	7	-1.5	-2.9	-2
CC1=CC(=O)C2=C(C)C[C@H](O)[C@@H]3[C@H](OC(=O)[C@H]3C)[C@@H]12	.	.	.	.	0	i	.	-2.8	.	7
Cc1cccc(CN2CCCC(C(=O)c3ccc(C(F)(F)F)cc3)C2)n1 (configuration not stated)	?	.	.	.	13	i	35	1.3	1.2	0
Cc1ccc(-n2c(O)c(/C=C/C=Nc3ccccc3)c(=O)[nH]c2=O)cc1	26	38	3	12	.	i	-20	5.1	68*	2
C=CCOC(=O)COc1cc(C)cc2oc(=O)c3c(c12)CCC3	-18	.	.	.	1	.	-10	.	?	-6
CC1=CC(=Cc2sc3ccccc3[n+]2C)C=C(C)O1	103*	-52	-80	-23	.	i	81*	1.3	2.2	.
O=C(c1ccccc1)C1CCCN(Cc2nc(-c3cnccn3)no2)C1 (configuration not stated)	0	3	3	-0.2	-4	.	-5	-2.5	1.4	.
COc1cccc(N2CCN(Cc3cccc(Cl)c3)CC2)c1	46	-24*	-15*	-1.5*	.	i	20	12	-1.7	.
COC(=O)[C@@]1(Cc2ccc(F)cc2)[C@H]2c3cc(C(=O)N(C)C)[nH]c3C[C@H]2CN1C(=O)c1ccccc1	.	-1	-18	-2.5	-3	i	.	-31	.	-11
COC(=O)Cn1cc(/C=C2\C(=O)NC(=O)N(c3ccc(OC)cc3)C2=O)c2ccccc21	1	5	3	-6.2	3	i	-9	2.6	8.8	-4
O=c1[nH]c(=S)n(C2CC2)c(O)c1/C=N/N1CCOCC1	4	3	5	-5.3	-3	i	-7	-3.4	-4.6	31
O=C(c1cccc(N2CCCC2=O)c1)N1CCC2(CC1)OCCO2	-12	.	.	.	-1	.	6	.	-0.4	-3
C#CC(CC)(CC)NC(=O)Nc1ccc(OCC)cc1	-32	11	1	3.5	-1	i	-6	0.6	-3.7	-9
CC(=O)c1c(C)n(C2CCCCC2)c2ccc(O)cc12	-2	19	16	1.5	.	i	-1	-3.8	-4.4	-2
CC[C@]12CC[C@H](O)CC1=CCC1C2CC[C@]2(C)C(=O)CCC12 (some centres not stated)	.	-44	-54	17	0	i	.	1.1	.	-5
COc1ccc(N2C(=O)CC(N3CCC(n4c(=O)[nH]c5ccccc54)CC3)C2=O)cc1 (configuration not stated)	-1	.	.	.	-7	.	2	.	-2.4	-5
C[C@]12CC[C@H](O)CC1=CCC1C2CC[C@@]2(C)C1C[C@@H]1CC(=O)O[C@@H]12 (some centres not stated)	.	-10	-16	0.3	5	i	.	-2.2	.	-4
O=Cc1c(C(=O)O)n(Cc2ccc(Cl)cc2)c2ccccc12	1	.	.	.	-10	.	3	.	-244	1
Cc1ccccc1-n1c(O)c(C(c2ccncc2)c2c(O)n(-c3ccccc3C)c(=O)[nH]c2=O)c(=O)[nH]c1=O	1&-7	2&6	14&6	-1.6&-2.3	1&-1	i	4&0	.	1.6&4.1	12&5

Record cards, from the list above. Values in the order: Calb FLC	Ecoli rRNA inh	Ecoli rRNA inh OD600	Ecoli rRNA inh RFP	Beta apoptosis	FGF22 binding	T cruzi repl	AF4-AF9 inh	RanGTP-Impb inh	ALR H2O2 inh
`CC(=O)c1c(C)n(C2CCCCC2)c2ccc(O)cc12` is listed as -2	19	16	1.5	.	i	-1	-3.8	-4.4	-2
`O=C(c1ccccc1)C1CCCN(Cc2nc(-c3cnccn3)no2)C1` (configuration not stated) is listed as 0	3	3	-0.2	-4	.	-5	-2.5	1.4	.

Carrying on:
SMILES	Calb FLC	Ecoli rRNA inh	Ecoli rRNA inh OD600	Ecoli rRNA inh RFP	Beta apoptosis	FGF22 binding	T cruzi repl	AF4-AF9 inh	RanGTP-Impb inh	ALR H2O2 inh
COc1cc(Br)c(CNCCc2ccc3c(c2)OCO3)cc1OC	0	.	.	.	.	i	43	5.8	-0.8	-2
Cc1cc(C)c(Cn2c(C(=O)O)c(C=O)c3ccccc32)c(C)c1	29	1	-6	3.5	7	i	0	-2.2	-17	4
Cc1ccc(N2C(=O)NC(=O)/C(=C/c3cnn(-c4ccc(C)cc4)c3)C2=O)cc1	-6	.	.	.	85*	.	-1	.	7.0	10
Clc1ccc(CSC(Cn2ccnc2)c2ccc(Cl)cc2Cl)cc1 (configuration not stated)	.	-59	-78	-16	11	i	50	6.7	3.0	-10
CC(C)(C)N1C(=O)NC(=O)/C(=C\c2ccc3c(c2)CCN3CCCCl)C1=O	9	10	12	7.5	-1	.	7	0.2	2.5	90*
CCc1ccc(NP(=O)(Oc2ccccc2F)Oc2ccccc2F)cc1	-31	-16	-7	-3.8	0	i	27	-5.3	1.3	-5
CN(C)/C=C/C(=O)C(Cl)(Cl)Cl	-9	20	13	-1.3	-8	i	-19	-0.4	-2.7	-7
COC(=O)C1=C(c2c(C)noc2C)C[C@@H]2CC[C@H]1N2C(=O)NC1CCCCC1	.	15	12	1.5	-2	i	.	-1.0	.	-1
CCN1C(=O)C(=C2C=C(C)OC(C)=C2)C(=O)N(CC)C1=S	18	5	0	-0.7	3	i	-4	1.9	-3.2	-4
CCCCCCCSc1cc(OC)c(CCN(C)C)cc1OC	38	.	.	.	-2	.	40	.	-2.3	-15
Cc1[nH]c2c(Cl)cccc2c1CCN	-3	.	.	.	-4	.	-8	.	2.8	-13
CCOc1cc2c(cc1OCC)-n1cccc1C(c1cccc(F)c1)NC2 (configuration not stated)	7	-5	-10	-1.8	1	i	28	26*	0.1	-6
CCN(CC)P(=O)(/C=C(\Cl)c1ccccc1)/C=C(\Cl)c1ccccc1	-16	-4	-3	-2.1	-2	i	-9	-2.7	1.0	2
CC(=O)OC1(Cc2ccccc2)CN2CCC1c1ccccc12 (configuration not stated)	0	.	.	.	-2	.	-1	.	-12	4
Fc1ccc2c(c1)nnn2C1CCN(Cc2ccccc2)CC1	-4	.	.	.	-12	.	-4	.	2.9	-15
N=C1C(c2ccccc2)=C(O)CN1Cc1ccco1	3	-4	7	-6.3	-3	i	-12	0.2	4.8	9
CC(C)OCC(O)CN1CC2C[C@@H](C1)Cn1c2cccc1=O (some centres not stated)	-7	4	19	0.2	-5	i	0	-2.9	-0.5	-1
CCOP(=S)(OCC)C(O)CCCCCn1c(=O)c(F)cn(C2CCCO2)c1=O (configuration not stated)	-3	12	3	10	9	i	53	-11	1.6	.
O=C(CN1CCCC1)Nc1ccc(Cl)cc1C(=O)c1ccccc1	6	9	3	-0.3	17	i	16	3.4	-3.7	-4
COc1cc(C)c(CNCCc2c[nH]c3ccccc23)cc1C	.	-5	-25	2.6	-4	i	36	22	-7.2	-9
O=[N+]([O-])c1cccc(C2N3CCCN23)c1 (configuration not stated)	-1	14	8	-0.4	7	i	-13	-0.5	1.8	-8
COC(=O)C1=C(c2ccc(F)cc2OCc2ccccc2)C[C@@H]2CC[C@H]1N2C(=O)NCCNC(C)=O	.	-1	5	0.6	1	i	.	0.7	.	-7
CCCc1nc2ccc(Br)cc2c(=O)n1-c1ccc([N+](=O)[O-])c(C(F)(F)F)c1	27	.	.	.	99*	.	56*	.	?	-15
c1cc(CCN2CCCC2)ccn1	6	10	11	0.5	-4	i	-4	.	-7.7	-5
O=CC(Cl)P(=O)(N1CCOCC1)N1CCOCC1 (configuration not stated)	-6	30	16	1.6	-6	i	-5	1.6	5.2	.
Cc1c(-c2cccc(Cl)c2)nc2ccccc2c1C(=O)N1CCC2(CC1)OCCO2	0	-23*	-14*	3.2*	5	i	2	-2.4	1.1	-6
COc1cccc(N2C(=O)NC(=O)/C(=C/c3ccc4c5c(cccc35)CC4)C2=O)c1	-9	13	4	21	.	i	-21	-1.8	1.8	-2
COC(=O)C1=C(c2ccc(-c3ccccc3)c(F)c2)C[C@@H]2CC[C@H]1N2C(=O)N1CCCCC1	.	6	8	-0.1	15	i	.	0.8	.	-4
COc1cc(OC)c(OC)cc1CN1CCN(C(=O)Cc2ccccc2)CC1	0	22	9	2.3	-8	i	3	-0.6	-2.4	-1
CN1C(=O)N(C)C(=O)C(CCc2ccccn2)(CCc2ccccn2)C1=O	7	.	.	.	5	.	1	.	1.5	-2
CC1(C)CC(=O)C(C=NCCN2CCN(C(=O)Cc3ccccc3)CC2)=C(O)C1	2	13	5	-11	-10	i	-5	3.3	?	.
CCCCCn1c(N)c(C(=O)NCCN2CCOCC2)c2nc3ccccc3nc21	-1	.	.	.	5	.	2	.	60*	-6
O=C(NCc1ccccc1)c1cccn(Cc2cccc(Cl)c2)c1=O	-11	-31	-51	0.2	1	i	-2	-3.6	3.9	-2

Some of the compounds tested. The share of hits here may be higher or lower than overall.
